Compound activity: PubChem BioAssay, National Center for Advancing Translational Sciences (NCATS)
VDR inh – blocks the human vitamin D receptor; P11473; VDR-SRC2-3 peptide fluorescence polarization, 2 h; Potency, µM, for the others: max response, negative = inhibition, hits mostly inhibitors; 0.93% of 400,000 active; active = well fitted inhibition curve with a large enough effect; inconclusive = small, poorly fitted or top-dose-only effect, or another doubt; inactive = no such curve, though single readings can be large or run the other way; note: series mostly up to about 120 µM
Target sequence (P11473 whole entry, looked up): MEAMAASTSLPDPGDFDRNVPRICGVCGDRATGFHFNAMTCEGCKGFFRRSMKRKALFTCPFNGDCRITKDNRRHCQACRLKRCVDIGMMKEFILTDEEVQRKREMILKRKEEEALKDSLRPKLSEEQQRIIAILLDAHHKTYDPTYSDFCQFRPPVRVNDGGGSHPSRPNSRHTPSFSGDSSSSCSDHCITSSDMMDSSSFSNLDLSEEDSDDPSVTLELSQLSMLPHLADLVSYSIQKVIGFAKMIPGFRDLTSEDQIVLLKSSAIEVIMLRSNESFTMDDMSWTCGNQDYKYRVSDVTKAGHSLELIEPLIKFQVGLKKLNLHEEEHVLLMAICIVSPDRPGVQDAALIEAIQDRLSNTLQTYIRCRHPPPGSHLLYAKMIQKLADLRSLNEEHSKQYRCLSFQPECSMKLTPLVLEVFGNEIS
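Fluorescence polarization assay of small-molecule disruption of VDR binding to coregulator peptide SRC2-3. Compounds and controls pin-transferred, then read after 2 h incubation at ambient room temperature.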
Numbers without * were called inactive; ? = inconclusive; & = joins results of further samples; ! = repeats disagree. % is set by controls: 0 for no effect and ±100 for the full control effect; potency is the fitted concentration of half-maximal effect. This is a subset. The share of hits here may be higher or lower than overall.

VDR inh	structure
-4%	Nc1c2ccccc2nc2c(O)cccc12
15%	CCOC(=O)c1[nH]c(C)c(C(=O)C(C)C)c1C
-3%	O=C(COC(=O)c1ccc(CO)cc1)Nc1ccc(OC(F)F)cc1
2%	COc1ccc2c(c1)c(=O)oc1cc(OCC(=O)NCC3CCC(C(=O)O)CC3)ccc12 (centres undefined)
11%	COc1ccc(N2C(=O)C3C(C2=O)C2C=CC3C23CC3)c([N+](=O)[O-])c1 (centres undefined)
11%	COc1ccc(OC(C)C(=O)NC2CCCCCC2)cc1 (centres undefined)
-15%	CCOCCCNC(=O)c1cc(-c2ccc(Br)s2)nc2ccccc12
-2%	O=[N+]([O-])c1ccc(-n2ccnc2)cc1
0%	S=c1[nH]nc(-c2ccc(Br)cc2)n1-c1ccc(Br)cc1
-2%	Cc1ccc2oc(=O)c3cc(C(=O)NCCCN4CCc5ccccc5C4)sc3c2c1
-1%	O=[N+]([O-])c1cc(Cl)ccc1N1CCOCC1
18%	COc1cccc(NC(=O)CCC(=O)Nc2cc(OC)c(NC(=O)c3cccs3)cc2OC)c1
12%	CN(CC(=O)Nc1ccccc1Cl)C(=O)c1ccc(-c2cccc(C(F)(F)F)c2)o1
-19%	CCC(CC)C(=O)NCCc1cc2cc(C)c(C)cc2[nH]c1=O
-14%	O=C(Cn1c(SCC(=O)NC2CCCC2)nnc1-c1ccncc1)Nc1ccc2c(c1)OCO2
-26%	CC(NC(=O)COC(=O)c1ccccc1SCC(=O)N1CCCC1)c1ccccc1 (centres undefined)
-8%	CCc1n[nH]c(=S)n1/N=C/c1cc(Br)c(OC)cc1OC
-7%	CC1CCN(c2c(NCC3CCC(C(=O)N4CCc5ccccc5C4)CC3)c(=O)c2=O)CC1 (centres undefined)
?	COC(=O)C1=C(C)N(CCC2=CCCCC2)C(=O)C1
9%	O=C(COc1ccccc1Cl)OCc1cc(=O)n2nc(-c3cccs3)sc2n1
6%	Cc1cc(C(=O)NCc2ccccc2)c(=O)[nH]c1C
4%	O=C(CN1C(=O)NC2(CCCC2)C1=O)Nc1cccc(C(F)(F)F)c1
-9%	CCOC(=O)c1sc(NC(=O)CSc2nc(C)cc(-c3ccccc3)n2)c(C#N)c1C
20%	COc1ccc(NC(=O)C2CC(=O)N/C(=N/N=C/c3ccco3)S2)cc1 (centres undefined)
-7%	C[C@H](NS(=O)(=O)c1ccccc1)C(=O)OCC(=O)NC(=O)Nc1ccc2c(c1)OCCO2
3%	COCCNC(=S)N/N=C(\C)c1cc2ccccc2o1
20µM*	O=C(Nc1cccc(C(F)(F)F)c1)c1ccc2nc(-c3ccco3)c(-c3ccco3)nc2c1
8%&-12%	CCc1nonc1NC(=O)c1oc2ccc(Br)cc2c1C
-3%	CCOC(=O)c1sc(=S)n(-c2cc(F)ccc2F)c1N
9%	CC1CC(C)(C)Nc2ccc(OC(=O)c3ccco3)cc21 (centres undefined)
-20%	Cc1oc(S(=O)(=O)N2CCCCC2)cc1NC(=O)Nc1ccccc1
6%	CC1(C(=O)Nc2nnc(C(C)(C)C)s2)Cc2ccccc2C(=O)O1 (centres undefined)
?	COc1ccc(OC)c(NC(=O)Cc2c(C(=O)O)n(C)c3ccc(C)cc23)c1
-3%	O=C(N/N=C/c1ccc(-c2cccc([N+](=O)[O-])c2)o1)[C@H]1C[C@@H]1c1ccccc1
-10%	CC(C)OC(=O)CSc1nc(Cc2cccs2)nc2ccccc12
-7%	CCOc1ccc(NC(=O)c2ccc(NC(=O)CSc3nc4ccccc4c(=O)[nH]3)cc2)cc1
-14%	CCCC1CCc2[nH]nc(C(=O)NN)c2C1 (centres undefined)
?	Cc1ccc(-c2nnc(OCc3nc4ccccc4n3C)c3ccccc23)cc1
-6%	CC(C)CCN1C(=O)c2cccc3c(N)ccc(c23)C1=O
-3%	O=C(COC(=O)c1ccc[nH]c1=O)NC1CCCCCC1
45µM*	CN(C)c1ccc(-c2cncnc2Nc2ccc(F)cc2)cc1
?	COC(=O)c1ccc(NC(=O)C23CC4CC(C2)CC(n2cnc(Cl)n2)(C4)C3)cc1
2%	Cc1ccc(C2=NS(=O)(=O)N(C)C(C(=O)Nc3cc(C)n(CC(=O)N4CCC(C)CC4)n3)=C2)cc1
-7%	CCOC(=O)Cc1csc(NC(=O)CS(=O)(=O)Cc2ccccc2)n1
-21%	CSCCC(NC(=O)c1ccccc1Br)C(=O)NCCCn1nc(C)cc1C (centres undefined)
0%	O=C(NCc1ccccn1)C(=O)NN=C1CCCCCCCCCCC1
16%	CC(=O)N1CCCc2cc(S(=O)(=O)N3CCC(C(=O)Nc4cccc(Cl)c4C)CC3)ccc21
1%	COc1cccc(NC(=O)CCCn2c(=O)c3cccn3c3cccnc32)c1
1%	Cc1cc(SCC(=O)Nc2ccc3[nH]c(=O)[nH]c3c2)nc2ccccc12
?	COc1ccc(C(=O)/C=C/c2ccc(N3CCCCC3)c([N+](=O)[O-])c2)cc1
-8%	CCOc1ccc(NC(=O)COC(=O)Cn2nc(C)c([N+](=O)[O-])c2C)cc1OCC
-3%&11%	O=c1cc(-c2ccc(O)c(O)c2)oc2cc(O[C@@H]3O[C@H](CO)[C@@H](O)[C@H](O)[C@H]3O)cc(O)c12
15%	C=CCOC(=O)C(C#N)c1nc2ccccc2nc1N1CCCC1 (centres undefined)
-10%	CCSc1nnc(NC(=O)C2CC2c2ccccc2)s1 (centres undefined)
16%	CCOc1ccc2nc(NC(=O)c3ccccn3)sc2c1
6%	CCc1ccc(NC(=O)CSc2nc(=O)n(CCCN3CCOCC3)c3c2CCC3)cc1

Some of these compounds in order of the VDR inh value, low to high:
VDR inh	structure
6%	CCc1ccc(NC(=O)CSc2nc(=O)n(CCCN3CCOCC3)c3c2CCC3)cc1
15%	C=CCOC(=O)C(C#N)c1nc2ccccc2nc1N1CCCC1 (centres undefined)
16%	CCOc1ccc2nc(NC(=O)c3ccccn3)sc2c1

More entries follow:
VDR inh	structure
-4%	Cc1ncc([N+](=O)[O-])n1CCOC(=O)C12CC3CC(CC(C3)C1)C2
4%	Cc1ccc(N(C)S(=O)(=O)c2nnc(NC(=O)CC(C)C)s2)cc1
-1%	C(=NOCCc1ccccc1)c1ccccn1
2%	O=C1/C(=C/c2ccccc2)CCC1C1CCCC1 (centres undefined)
-4%	COc1ccc(F)cc1C(=O)C1CCCN(C(=O)c2ccc(C(C)=O)s2)C1 (centres undefined)
6%	O=C(NCc1ccccn1)c1ccc(Br)s1
0%	O=C(CSc1nc(N2CCOCC2)nc(N2CCOCC2)n1)Nc1ccccc1F
-23%	CC1CN(Cc2nc3c(c(=O)n(C)c(=O)n3C)n2Cc2ccccc2)CC(C)O1 (centres undefined)

Brought forward from above: six entries; new compounds follow.
VDR inh	structure
-1%	C(=NOCCc1ccccc1)c1ccccn1
2%	O=C1/C(=C/c2ccccc2)CCC1C1CCCC1 (centres undefined)
-4%	COc1ccc(F)cc1C(=O)C1CCCN(C(=O)c2ccc(C(C)=O)s2)C1 (centres undefined)
6%	O=C(NCc1ccccn1)c1ccc(Br)s1
0%	O=C(CSc1nc(N2CCOCC2)nc(N2CCOCC2)n1)Nc1ccccc1F
-23%	CC1CN(Cc2nc3c(c(=O)n(C)c(=O)n3C)n2Cc2ccccc2)CC(C)O1 (centres undefined)
-5%	COC(=O)CCN(C(=O)c1ccc(OC(C)=O)cc1)c1ccccn1
6%	CCCC1c2ccc(C)n2CCN1C(=O)Nc1ccc(F)cc1 (centres undefined)
13%	CCn1c(CC(=O)Nc2cccc(OC)c2)nnc1SCC(=O)N1CCN(c2ccccc2)CC1
-20%	Clc1ccc(CSc2nncn2-c2ccccn2)cc1
10%	Cc1cccc(C)c1OCCSc1n[nH]c(N)n1
5%	Cc1ccccc1NC(=S)NCCc1ccccn1
-12%	O=C(CCN1CCN(c2ccccc2F)CC1)Nc1cccc(F)c1
0%	O=C(c1ccco1)N1CCCC(Nc2ccc3c(c2)OCCO3)C1 (centres undefined)
4%	CCOc1ccc(CN2CCN(Cc3cnc(-c4ccccc4)s3)CC2CCO)cc1 (centres undefined)
6%	O=C(OC(C(=O)NCC1CCCO1)c1ccccn1)c1cccs1 (centres undefined)
0%	Nn1c(SCC(=O)Nc2nccs2)nnc1C1CC1
-5%	CCOc1ccc(S(=O)(=O)n2cc(-c3ccc(F)cc3)c(N)n2)cc1
-1%	Cc1c2cnn(CC(=O)NCc3ccccc3)c(=O)c2c(C)n1Cc1cccc(Cl)c1
-2%	O=C(O)Cc1ccc(NC(=O)Nc2cccc3ccccc23)cc1
-3%	CCc1ccc[n+](-c2nc([O-])sc2C=O)c1
-4%	CCn1c(SCC(=O)C(C)(C)C)nnc1-c1ccccc1OC
14%	CC(C)c1nnc(NC(=O)COC(=O)/C=C/c2ccc([N+](=O)[O-])cc2)s1
-9%	COC(=O)c1cc(OC)c(OC)cc1N1C(=O)CCCC1=O
-8%	COc1ccc(CN(C)CC(=O)NC(=O)NCc2ccccc2)cc1OC
5%	COc1cccc(/C=N/Nc2ncnc(Cl)c2N)c1O
-26%	CCOCCCN1C(=O)C(O)=C(C(C)=O)C1c1cccs1 (centres undefined)
?	CCOC(=O)c1oc2ccccc2c1NC(=O)CCl
-11%	Cc1ccc2c(c1)=C(c1sc(N(C)c3ccc(O)cc3)nc1O)C(=O)N=2
3%	Cc1ccc(N(CC(=O)NCC2CCCO2)C(=O)CCC(=O)Nc2nccs2)cc1 (centres undefined)
9%	Cc1ccc([N+](=O)[O-])c(C(=O)Nc2cccnc2Cl)c1
16%	COc1cc(S(=O)(=O)N2CCOCC2)ccc1NC(=O)COC(=O)c1ccccn1
5%	CC1SC(=NC(=O)C(C)N2C(=O)c3ccccc3C2=O)NC1=O (centres undefined)
8%	CCOCCc1nn2c(=O)cc(COC(=O)c3ccccc3NC(=O)CC(C)C)nc2s1
5%	CC(=O)Nc1cccc(-c2nnc(SCC(=O)n3c4c(c5ccccc53)CCCC4)n2C)c1
-16%	O=C(c1ccc2c(c1)N(Cc1ccc(Cl)cc1)C(=O)c1ccccc1S2=O)N1CCCCC1 (centres undefined)
13%	COC(=O)c1c(-c2cccc(C)c2)csc1N
5%	Cc1c(C(=O)OCC(=O)N(C)C2CCS(=O)(=O)C2)oc2ccc(Br)cc12 (centres undefined)
?	Cc1c(CCCl)c(Cl)n2c(nc3ccccc32)c1C#N
-13%	CCOC(=O)N1CCN(c2cc(=O)n(-c3ccccc3Cl)c(=O)[nH]2)CC1
-10%	Cn1cccc1/C=C1/SC(=O)N(CC(=O)N2CCCC2)C1=O
-20%	CCOc1cc(N2CCOCC2)c(OCC)cc1NC(=O)c1ccc(C)cc1
12%	O=C1CC(c2ccccc2)CC(O)=C1C=NCc1ccc(Cl)c(Cl)c1 (centres undefined)
3%	Cc1ccc(Cn2ccc(NC(=O)c3cc(C4CC4)on3)n2)cc1
-1%	CCC1(C)Cc2nc3sc(C(=O)O)c(N)c3cc2CO1 (centres undefined)
1%	Cc1ccccc1S(=O)(=O)Cc1ccc(C(=O)NCc2ccccc2Cl)o1
-20%	COC(=O)C1=C(C)N(c2ccc(Cl)c(Cl)c2)C(=O)C1
-3%	CC(C)c1nnc(NC(=O)CSc2ncn[nH]2)s1
19%	COc1ccc(Nc2nc(C(C)(C)C)nc3c2nnn3Cc2ccccc2Cl)cc1OC
-15%	Cc1ccc(CN(C)C(=O)C2CCC(=O)N(CC3CCCCC3)C2)o1 (centres undefined)
-3%	Cc1ccc2cccc(NC(=O)c3ccc(Br)o3)c2n1
4%	COc1ccccc1NC(=S)NCCSc1ccc(Cl)cc1
-5%	Cc1ccc(C(=O)Nc2ccc3c(c2)OCCO3)cc1
79µM*!	O=c1cc(-c2ccccc2)[nH]c2cc(Cl)ccc12

No new results follow: entries from further up.
VDR inh	structure
-20%	COC(=O)C1=C(C)N(c2ccc(Cl)c(Cl)c2)C(=O)C1
-3%	CC(C)c1nnc(NC(=O)CSc2ncn[nH]2)s1
19%	COc1ccc(Nc2nc(C(C)(C)C)nc3c2nnn3Cc2ccccc2Cl)cc1OC
-15%	Cc1ccc(CN(C)C(=O)C2CCC(=O)N(CC3CCCCC3)C2)o1 (centres undefined)
-3%	Cc1ccc2cccc(NC(=O)c3ccc(Br)o3)c2n1

VDR inh, entries above that show a hit.
VDR inh	structure
20µM*	O=C(Nc1cccc(C(F)(F)F)c1)c1ccc2nc(-c3ccco3)c(-c3ccco3)nc2c1
45µM*	CN(C)c1ccc(-c2cncnc2Nc2ccc(F)cc2)cc1
79µM*!	O=c1cc(-c2ccccc2)[nH]c2cc(Cl)ccc12

Later entries
VDR inh	structure
5%	CCn1c2ccccc2c2cc(NC(=O)c3cc(C)on3)ccc21
-18%	N#Cc1ccccc1Cn1c(=O)n(CCCC(=O)NCc2ccc3c(c2)OCO3)c(=O)c2ccccc21
-3%	CC(=O)C1=C(C)NC(=O)NC1c1ccc(Cl)cc1 (centres undefined)
-9%	Cc1cc(C(=O)COc2cccc3cccnc23)c(C)n1C
17%	CCC(=O)Nc1ccc(-c2nnc(SCC(=O)N3CCCCC3)n2C)cc1
-3%	O=C(Nc1ccc2c(c1)OCO2)c1cnn2c1NC(c1ccco1)CC2C(F)(F)F (centres undefined)
-12%	CC(=O)Oc1ccc(C(=O)Nc2ccccc2C(=O)Nc2cccc(C(=O)O)c2)cc1
-6%	S=C(NC1CCCC1)N1CCOCC1
